PINK1 modulator: modulators of PINK1 expression | PINK1 immunofluorescence, high-content cytometry, 24 h | Potency, µM (titrated, usually from 76.6 µM), inactives show at the highest dose activation (PINK1 increase), actives largely listed as activators | actives 0.2% (n = 410,000); active = well fitted activation curve with a large enough effect; inconclusive = small, poorly fitted or top-dose-only effect; inactive = flat fitted curve, though single readings scatter; cell line not stated here;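 also: % of control where 0% means no effect; nearly all actives have a fitted effect of over 65% in size; a mitochondrial uncoupler was the plate control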
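PINK1 protein, normally rapidly degraded, was detected by immunofluorescence after 24 hour compound treatment of a stable cell line. Titration data (5 concentrations) came from laser-scanning cytometry, with CCCP-treated wells as controls.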
* hit, by the source's call; ? = inconclusive. Potency is read from the fitted curve at half-maximal effect.

SMILES	PINK1 modulator
COc1ccc(-c2nc3cnc(N4CCN(C)CC4)nc3n(-c3ccc(OC)cc3)c2=O)cc1	-1.3%
COc1ccccc1-c1nc(NC2CC2)c2ccccc2n1	0.8%
COc1ccc(-c2nc3cnc(N4CCN(C)CC4)nc3n(CCC#N)c2=O)cc1	-0.4%
N#Cc1ccc(CN2CC[C@@]3(CCCN(C(=O)c4cnccn4)C3)C2)cc1	-1.2%
CC(=O)N1CCC2(CCCN(Cc3cc(C(F)(F)F)cc(C(F)(F)F)c3)C2)CC1	0.5%
COc1ccc(-n2c(=O)c(-c3ccccc3)nc3cnc(N4CCNCC4)nc32)cc1	0.7%
CCCCCCCCCCCCCc1ccco1	-0.1%
CN(C)c1ncc2nc(-c3ccc(Cl)cc3)c(=O)n(C)c2n1	0.1%
Cc1ccc(CN2CCC(C3(c4ccccn4)NC(=O)N(CC4CCCO4)C3=O)CC2)cc1C (stereo not given)	2.1%
Cc1ncc2c(c1CNC(=O)/C=C/c1cccs1)CCN(C(=O)C1CCCO1)C2 (stereo not given)	0.2%
CCC1CN(CCNC(=O)c2cccc3nccnc23)Cc2cc(OC)ccc2O1 (stereo not given)	-0.7%
Cc1cc(Cl)ccc1OCC(=O)NCC1Cc2cc(-c3cnccn3)ccc2O1 (stereo not given)	2.0%
COc1ncc2nc(-c3cc(F)cc(F)c3)c(=O)n(C3CC3)c2n1	-0.5%
COc1ccc(NC(=O)N2CC3(CCN(C(=O)c4cnccn4)CC3)C2)cc1	0.5%
O=C(c1cc(C(F)(F)F)cc(C(F)(F)F)c1)N1CCC2(CCCN(c3ccccc3)C2)CC1	0.7%
CC(=O)N1CCC2(CC1)CN(c1cccc(-c3ccccc3)c1)C2	0.1%
Cc1cccc(-c2cccc(C(=O)N3CCc4c(cnc(C)c4CNC(=O)c4cncs4)C3)c2)c1	9.6%
COc1cc(=O)n2c(c1C(=O)NC(C)c1ccco1)CCN(Cc1ccnc3ccccc13)CC2 (stereo not given)	0.0%
NC(=O)C1CCCN(Cc2ccc3c(c2)CN(Cc2ccccc2)CCO3)C1 (stereo not given)	-0.7%
c1cncc(CNc2ncncc2-c2ccoc2)c1	0.0%
CCc1nc2cc(C(=O)N3CCCN(C=O)CC3)cc(NC(=O)c3ccccc3OC)c2n1C	-0.7%
COc1ccc(/C=C/C(=O)NCC2Cc3cccc(-c4nc(C)cnc4C)c3O2)cc1OC (stereo not given)	1.2%
Cc1noc(C)c1C(=O)N1CCC2(CCN(Cc3cc(C(F)(F)F)cc(C(F)(F)F)c3)CC2)CC1	-0.4%
O=C(c1ccncc1)N1CCC2(CCN(Cc3ccccc3)CC2)CC1	-0.1%
NC(=O)C1CCN(c2nc(-c3ccccc3Br)cs2)CC1	?

Next part
SMILES	PINK1 modulator
CCNc1ncc2nc(-c3ccc(F)cc3)c(=O)n(-c3ccc(OC)cc3)c2n1	?
OCC1CCCN(c2nc3cc4c(cc3cc2CNCc2cccs2)OCO4)C1 (stereo not given)	-0.9%
CCNc1ncc2nc(-c3cc(F)cc(F)c3)c(=O)n(Cc3ccc(F)cc3)c2n1	3.0%
Cc1noc(C)c1-c1cc(NCc2cccs2)ncn1	0.8%
CC(=O)Oc1ccc2c(c1)CCC1C2CC[C@@]2(C)C1CC(OC(C)=O)C2OC(C)=O (stereo not given in full)	0.2%
O=C(Nc1cccc(N2CCC(NCc3cnn(-c4ccccc4)n3)CC2)c1)c1cccnc1	-0.6%
COc1cc(=O)n2c(c1C(=O)NC(C)c1ccco1)CCN(C(=O)c1[nH]c(C)cc1C)CC2 (stereo not given)	0.3%
Cc1ccccc1-n1cc(CNC(=O)CN2Cc3ccccc3OC(C)C2)cn1 (stereo not given)	0.7%
Cc1nc(C)c(CC(=O)N2CCOc3ccc(CN4CCOCC4)cc3C2)s1	-0.5%
COc1ncc2ncc(=O)n(Cc3ccc(F)cc3)c2n1	-0.7%
Cc1cc(-c2cc(F)cc3c2OC(CNC(=O)[C@@H]2CCC(=O)N2)C3)ccc1F (stereo not given in full)	-0.6%
Cn1ccc(C(=O)NCC2CCC3(CCN(Cc4cc(F)cc(F)c4)CC3)O2)n1 (stereo not given)	-0.1%
OCC1CCCN(c2nc3cc4c(cc3cc2CNCc2cccc(C(F)(F)F)c2)OCO4)C1 (stereo not given)	0.5%
C/C(=C\c1cc2ccccc2o1)C1Nc2cccc3cccc(c23)N1	1.5%
Cc1noc(C)c1C(=O)N1CCC[C@@]2(CCN(C(=O)Nc3ccccc3)C2)C1	0.3%
CCn1nc(C)cc1C(=O)NCC1CCC2(CCN(Cc3ccccc3F)CC2)O1 (stereo not given)	0.6%
COCc1c(C(=O)NC2CCCCC2)cnn1-c1nccc(-c2cc(C)sc2C)n1	1.3%
c1cncc(-c2cncnc2NCc2cccs2)c1	-0.9%
CN(C)Cc1ccccc1-c1cc(Nc2ccccc2)ncn1	-0.5%
C=C1CCC2[C@](C)(CO)C(O)CC[C@]2(C)C1C/C=C1/C(=O)OCC1O (stereo not given in full)	0.0%
CN1CCN(c2ncc3nc(-c4ccc(Cl)cc4)c(=O)n(-c4ccccc4)c3n2)CC1	3.9%
O=C(c1cnccn1)N1CCC2(CC1)CN(c1ccccc1)C2	-0.6%
O=C(c1ccco1)N1CCC2(CCCN(c3ncccn3)C2)CC1	1.4%
COc1cccc(Cn2c(=O)cnc3cnc(Oc4ccccc4)nc32)c1	21.6%
Cn1cccc1C(=O)N1CCC2(CC1)CCN(c1ccccn1)CC2	0.6%

Going on with the list.
SMILES	PINK1 modulator
O=C(NCC1CCC2(CCN(Cc3cccn3-c3ccc(Cl)cn3)CC2)O1)c1ccccc1 (stereo not given)	0.0%
O=C([C@@H]1C[C@@H](Sc2nc3ccccc3[nH]2)CN1CC1CCCCC1)N1CCOCC1	-0.2%
Cc1ccc(C(=O)Nc2cccc(-c3nc(CNC(=O)c4cccc(N(C)C)c4)c(C)o3)c2)s1	-0.2%
COc1ccccc1-c1nc(Nc2ccncc2)c2ccccc2n1	0.0%
COc1ncc2nc(CCc3ccccc3)c(=O)n(Cc3ccc(F)cc3)c2n1	0.6%
CN1CCN(c2ncnc3ccc(-c4ccc5c(c4)OCO5)cc23)CC1	4.6%
Cc1cc(-c2ccnc(-n3ncc(C(=O)N(C)Cc4nccs4)c3C)n2)c(C)s1	3.5%
CCOC(=O)CCCC(=O)Nc1ncnc2c1C(c1ccccc1)c1c(ccc3ccccc13)O2 (stereo not given)	1.2%
COc1ccc(C(=O)OCC#CCSc2nnc(-c3cccc4ccccc34)o2)cc1	0.5%
Cc1noc(C)c1-c1nc(Nc2ccc(F)cc2)c2ccccc2n1	6.9%
CN(C)C(=O)c1ccc(-c2nc(N(C)C)c3ccccc3n2)cc1	2.7%
CCOC(=O)c1ccc(-n2cccc2/C=C2\NC(=O)NC2=O)cc1	9.9%
CCS(=O)(=O)Nc1cc(C(=O)N2CCC[C@H]2CO)c2c(c1)nc(-c1ccccc1)n2C	1.4%
COc1ccc(C(=O)N2CCC3(CC2)CN(Cc2ccc(C#N)cc2)C3)cc1	-0.8%
O=C(NCc1nnc2n1CCN(Cc1cccc(Cl)c1)CC2)c1cccc(F)c1	2.5%
Cc1cc(-c2ccnc(-n3ncc(C(=O)NCC4CCCO4)c3C3CC3)n2)c(C)s1 (stereo not given)	4.8%
Cc1ccc(CN2CCOc3ccc(CN4CCC(Oc5cccnc5)CC4)cc3C2)o1	-0.9%
CC(=O)NCCNc1ncncc1-c1ccccc1C	0.9%
O=c1c(-c2ccc(F)cc2)nc2cnc(N3CCNCC3)nc2n1-c1ccccc1	1.1%
COc1ccccc1CN1CCOc2ccc(C(C)(O)CN(C)C)cc2C1 (stereo not given)	-0.9%
O=C(Nc1ccccc1)N1CC[C@@]2(CCCN(C(=O)c3ccncc3)C2)C1	0.6%
COCC1CCCN(Cc2ccc3c(c2)CN(C(=O)c2cccnc2OC)CCO3)C1 (stereo not given)	0.0%
CCC(=O)NCc1nc(-c2cccc(NC(=O)c3ccc(C)s3)c2)oc1C	0.9%
COc1ccc(CN2CCCC(n3cc(C(=O)N4CCCCC4)nn3)C2)cc1OC (stereo not given)	-1.1%
COc1cccc(Nc2ncc3nc(-c4ccccc4)c(=O)n(C4CC4)c3n2)c1	2.9%

New compounds follow
SMILES	PINK1 modulator
Cc1cnc(CNc2ncnc3ccc(-c4cccc(NS(C)(=O)=O)c4)cc23)cn1	0.4%
O=C(c1ccncc1)N1CCC2(CC1)CCN(c1ccccc1)CC2	0.1%
O=C(c1csnn1)N1CCC2(CC1)CN(c1ccccn1)C2	-0.3%
O=C(Nc1cccc(N2CCC(NCc3cnn(-c4cccc(F)c4)c3)CC2)c1)c1ccncc1	1.9%
Oc1cc(-c2nc3ccccc3s2)cc2c1OCCN(Cc1cccn1-c1ccccn1)C2	-0.2%
COc1cc(O)c(C(=O)c2ccccc2)cc1O	-1.1%
COCC(=O)Nc1cc(C(=O)N2CCCOc3c(cccc3OC)C2)c2c(c1)nc(C1CCC1)n2C	0.7%
CN(C)c1nc(-c2ccccc2C(F)(F)F)nc2ccccc12	-1.1%
COc1cccc(-c2ccc3ncnc(N4CCN(C)CC4)c3c2)c1	0.2%
Cc1oc(-c2ccccc2NC(=O)c2ccccn2)nc1CNC(=O)c1ccc(Oc2ccccc2)o1	0.1%
COc1cccc(Cn2c(=O)c(-c3ccc(F)cc3)nc3cnc(N4CCOCC4)nc32)c1	1.5%
CC12CCCC(O)(C1)C1CC(C)(C)C1CC2 (stereo not given)	2.6%
N#CCCn1c(=O)c(-c2cccs2)nc2cnc(Nc3ccccc3)nc21	?
CCC1(C2CCN(C(=O)c3cc4ccccc4o3)CC2)NC(=O)N(CCc2scnc2C)C1=O (stereo not given)	-0.6%
COc1ccccc1CN1CCCC2(CCNCC2)C1	0.2%
Cc1cccc(CNc2ncnc3ccc(-c4ccccc4CN(C)C)cc23)c1	2.4%
Cc1cnc(C)c(-c2cc(F)cc3c2OC(CNC(=O)c2cc(Cl)ccc2F)C3)n1 (stereo not given)	1.1%
CC(=O)OC1CC[C@]2(C)C(CC[C@@]3(C)C2C(=O)C=C2C4C(C)C(C)CC[C@@]4(C(=O)O)CCC23C)C1(C)C (stereo not given in full)	0.3%
O=C(O)CCC(=O)C(=O)O (tested in a mixture with another compound)	0.9%
CN(C)c1nc(CN2CCCCC2c2cccnc2)nc2ccccc12 (stereo not given)	1.3%
Cn1cnnc1Sc1ccc(CN2CCOc3ccc(C4=CCCCC4)cc3C2)o1	-0.2%
N#Cc1ccccc1-c1cncnc1NCc1cccnc1	-1.0%
COC(=O)c1c(OCCN2CCCCC2)cc(=O)n2c1CCN(Cc1cccc3nccnc13)CC2	0.0%
c1nc(NCc2ccc3c(c2)OCO3)c2cc(-c3ccc4c(c3)OCCO4)ccc2n1	?
O=c1c(CCc2ccccc2)nc2cnc(N3CCNCC3)nc2n1-c1ccccc1	1.1%

14 neighbouring entries already listed:
SMILES	PINK1 modulator
CC12CCCC(O)(C1)C1CC(C)(C)C1CC2 (stereo not given)	2.6%
N#CCCn1c(=O)c(-c2cccs2)nc2cnc(Nc3ccccc3)nc21	?
CCC1(C2CCN(C(=O)c3cc4ccccc4o3)CC2)NC(=O)N(CCc2scnc2C)C1=O (stereo not given)	-0.6%
COc1ccccc1CN1CCCC2(CCNCC2)C1	0.2%
Cc1cccc(CNc2ncnc3ccc(-c4ccccc4CN(C)C)cc23)c1	2.4%
Cc1cnc(C)c(-c2cc(F)cc3c2OC(CNC(=O)c2cc(Cl)ccc2F)C3)n1 (stereo not given)	1.1%
CC(=O)OC1CC[C@]2(C)C(CC[C@@]3(C)C2C(=O)C=C2C4C(C)C(C)CC[C@@]4(C(=O)O)CCC23C)C1(C)C (stereo not given in full)	0.3%
O=C(O)CCC(=O)C(=O)O (tested in a mixture with another compound)	0.9%
CN(C)c1nc(CN2CCCCC2c2cccnc2)nc2ccccc12 (stereo not given)	1.3%
Cn1cnnc1Sc1ccc(CN2CCOc3ccc(C4=CCCCC4)cc3C2)o1	-0.2%
N#Cc1ccccc1-c1cncnc1NCc1cccnc1	-1.0%
COC(=O)c1c(OCCN2CCCCC2)cc(=O)n2c1CCN(Cc1cccc3nccnc13)CC2	0.0%
c1nc(NCc2ccc3c(c2)OCO3)c2cc(-c3ccc4c(c3)OCCO4)ccc2n1	?
O=c1c(CCc2ccccc2)nc2cnc(N3CCNCC3)nc2n1-c1ccccc1	1.1%

(more compounds)
SMILES	PINK1 modulator
O=c1c(-c2cccs2)nc2cncnc2n1Cc1ccccc1	?
Cc1ccccc1-c1cc(Nc2ccccc2)ncn1	-1.1%
COC(=O)C1CCCCN1Cc1nc(N2CCCCC2)c2cc(OC)c(OC)cc2n1 (stereo not given)	0.5%
O=C(NCC1CCC2(CCN(Cc3cc4ccccc4o3)CC2)O1)c1ccccc1 (stereo not given)	3.5%
CC(=O)c1ccc(-c2ccc3c4c(ccc3c2)OC(CNC(=O)C(C)N2CCOCC2)C4)s1 (stereo not given)	-0.9%
O=C(c1ccco1)N(Cc1cc2cc3c(cc2nc1N1CCOCC1)CCC3)CC1CCCO1 (stereo not given)	0.3%
COC(=O)c1ccc(CN2C[C@H](Sc3ccccn3)C[C@H]2C(=O)N(C)C)cc1	-0.6%
COc1ccc(-c2oc3cc(O[C@@H]4OC(CO)C(O)C(O)C4O)c(OC)c(O)c3c(=O)c2OC)cc1O (stereo not given in full)	6.0%
N#Cc1ccc(CN2CC3(CCN(C(=O)c4cc(C(F)(F)F)cc(C(F)(F)F)c4)CC3)C2)cc1	-0.3%
COc1ccc(OC)c(-c2cc(Cl)c3c(c2)CC(CNC(=O)c2coc4c2C(=O)CCC4)O3)c1 (stereo not given)	-0.5%
CC1OC(OCC2OC(Oc3c(-c4ccc(O)c(O)c4)oc4cc(O)cc(O)c4c3=O)C(O)C(O)C2O)[C@@H](O)C(O)C1O (stereo not given in full)	1.6%

Some of the compounds tested. The share of hits here may be higher or lower than overall.
